# H5N1 antiviral – MDCK cell protection from H5N1 avian flu. cytopathic effect, luminescence, 72 h; hits give high values; no value below 0 was filed and about half of the inactive calls have no number; reference of the scale not given here. inhibition, % at 50 µM. actives 0.07% (n = 96,000). AID 740; in the data active = inhibition above about 25%
# An asterisk follows results filed as active; i = inactive.
canonical_smiles	H5N1 antiviral
CCCn1c(SCC(=O)N2CCCc3ccccc32)nnc1-c1ccccn1	i
O=C1NC(c2ccccc2Cl)Nc2ccccc21 (stereo unspecified)	0.2
COC(=O)Cc1c(C)c2c(OCc3nn[nH]n3)cc(C)cc2oc1=O	1.1
O=C(Nc1ncccc1Cl)C(Sc1ccccc1)c1ccccc1 (stereo unspecified)	i
CCOC(=O)CSc1nnc(C)n1N	i
O=S(=O)(c1ccc2c(c1)OCCCO2)N1CCNCC1	1.1
CCOC(=O)CSc1nc(N)c(C#N)c(CC(C)C)c1C#N	i
Cc1cc(=O)oc2c(CN3CCC(C)CC3)c(O)c(Cl)cc12	1.7
CCCCn1nnc(NC(=O)c2ccc(-c3cccc(Cl)c3)o2)n1	0.3
CN1C(=O)/C(=C/c2ccccc2OCc2cccc(F)c2)N(C)C1=S	i
CCN(CCCNS(=O)(=O)c1ccc2c(c1)oc(=O)n2C)c1cccc(C)c1	0.7
CCC(=O)OCc1c(C(F)(F)F)nn(C)c1Sc1ccc(Cl)cc1	i
Cc1ccccc1C(NC(N)=O)c1ccccc1 (stereo unspecified)	i
COc1ccc(CNc2oc(COc3ccccc3Cl)nc2C#N)cc1	i
N#CC(c1nc2ccccc2nc1N1CCCC1)S(=O)(=O)c1cccs1 (stereo unspecified)	0.9
O=C(O)c1cccc(COc2ccc(CO)cc2Cl)c1	i
COCCn1c(Cc2ccccc2)nnc1SCc1nc2ccccc2c(=O)[nH]1	i
Nc1nc(SCc2ccc3c(c2)OCO3)n[nH]1	i
CCN1CCN(c2nc3c(c(=O)n(C)c(=O)n3C)n2CCSc2nccc(C)n2)CC1	1.1
Cc1ccc(C(=O)NCc2ccco2)cc1S(=O)(=O)N1CCOCC1	3.8
CN(C)CCc1nn[nH]n1	i
CC1=NCCN1S(=O)(=O)c1ccc(Br)c(C)c1	0.9
CCC(=O)Nc1nc2c(OC)ccc(OC)c2s1	i
Cc1c(NC(=O)CSc2nc3ccccc3s2)c(=O)n(-c2ccccc2)n1C	0.3
CC1CCCCC1NC(=O)c1ccc2c(c1)[nH]c(=O)n2C1CCCC1 (stereo unspecified)	0.4
O=C(CSc1nnc(CNc2ccccc2)o1)c1ccc2c(c1)OCCO2	i
CCOC(=O)c1cc(-c2ccc(N)cc2)sc1N	i
Cc1ccc2nc(/C(C#N)=C/c3cn[nH]c3-c3ccc(F)cc3)[nH]c2c1	i
COc1ccc(C(=O)NN2C(=O)C3C4C=CC(O4)C3C2=O)cc1 (stereo unspecified)	0.7
COc1ccc(C2SCC(=O)Nc3c2c(=O)[nH]n3C2CCCCC2)cc1 (stereo unspecified)	i
Cc1ccc(Nc2nc3nonc3[nH]c2=O)cc1	i
CCn1ncc(Br)c1C(=O)Nc1ccc(F)cc1F	i
COCCNC(=S)NC1CC2CCCC(C1)N2Cc1cccs1 (stereo unspecified)	0.2
O=c1oc2ccccc2cc1-c1nc(-c2ccccc2)no1	i
c1ccc(-n2nnnc2Sc2n[nH]c(-c3ccncc3)n2)cc1	1.6
C=CCN1C(=O)NC(=O)/C(=C/c2ccc(OC)c(CSc3ccccn3)c2)C1=O	0.8
Cc1ccc(NC(=O)CN2CCC(NC(=O)Cc3ccccc3)CC2)cc1C	i
Cc1[nH]c2ccccc2c1/C=N/Nc1nc(Nc2ccccc2)nc(N2CCOCC2)n1	i
O=C(c1ccc(-c2nnc(Nc3cccc(Cl)c3)c3ccccc23)cc1)N1C[C@H]2C[C@H](C1)c1cccc(=O)n1C2	1.4
CCc1ccc2[nH]c(=O)c(C(c3nnnn3CC3CCCO3)N3CCCc4ccccc43)cc2c1 (stereo unspecified)	i

# A draw from above in order of heavy-atom count, lowest first:
canonical_smiles	H5N1 antiviral
CCOC(=O)c1cc(-c2ccc(N)cc2)sc1N	i
O=c1oc2ccccc2cc1-c1nc(-c2ccccc2)no1	i
c1ccc(-n2nnnc2Sc2n[nH]c(-c3ccncc3)n2)cc1	1.6
COc1ccc(C2SCC(=O)Nc3c2c(=O)[nH]n3C2CCCCC2)cc1 (stereo unspecified)	i
O=C(CSc1nnc(CNc2ccccc2)o1)c1ccc2c(c1)OCCO2	i
CCc1ccc2[nH]c(=O)c(C(c3nnnn3CC3CCCO3)N3CCCc4ccccc43)cc2c1 (stereo unspecified)	i

# New compounds follow:
canonical_smiles	H5N1 antiviral
O=[N+]([O-])c1ccccc1/C=N/N1CCN(c2ccc(Cl)cc2)CC1	i
CCCC1=NCCn2cccc21	0.3
O=C(CCCC(=O)OCC(Cl)=C(Cl)Cl)Nc1cccc(F)c1	0.2
CC1CCCN(C/C=C/c2ccccc2[N+](=O)[O-])C1 (stereo unspecified)	0.6
COCCn1nnnc1C(c1cccs1)N1CCN(c2cccc(C(F)(F)F)c2)CC1 (stereo unspecified)	i
C=C(C)Cn1c(N2CCC(Cc3ccccc3)CC2)nc2c1c(=O)[nH]c(=O)n2C	16.8
O=C(COC(=O)c1ccccc1NC(=O)c1ccco1)Nc1ccc2c(c1)OC(F)(F)O2	i
Cc1cc(C)nc(Sc2c(F)c(F)c(C(F)(F)F)c(F)c2F)n1	i
CCCCCCCC1CC(CSC(=N)N)OC1=O (stereo unspecified)	i
CCCOP(=O)(OCCC)C1(Nc2ccc(C)cc2)CCCCC1	0.5
OC(COc1ccccc1)CSc1ncn[nH]1 (stereo unspecified)	i
COc1ccc(N2CC(C(=O)Nc3ccc4c(c3)OCO4)CC2=O)cc1 (stereo unspecified)	i
COC(=O)c1ccc(NC(=S)N2CCN(Cc3ccc(Cl)cc3)CC2)cc1	i
COc1cc(-c2cc(-c3ccccc3)nc(SCC(=O)Nc3nccs3)c2C#N)cc(OC)c1OC	0.5
COc1cccc(N2CCN(CC(=O)c3c(C)[nH]c4ccccc34)CC2)c1	0.4
CCCCNC(=O)C(=O)c1ccccc1NC(C)=O	i
C=CCN=C1SCC(=O)N1S(=O)(=O)c1ccccc1	1.1
CCC1(CC)C(=O)NC(=Nc2cccc(C(F)(F)F)c2)NC1=O	i
C[N+]1(CCNC(=O)/C=N/O)CCCCC1	1.1
COC(=O)CC(NC(=O)c1ccco1)c1ccc(C(C)C)cc1 (stereo unspecified)	i
Cc1ccc(CNC(=O)CS(=O)Cc2nc(-c3ccccc3C)oc2C)cc1 (stereo unspecified)	i
C/C(=C\C(=O)C(F)(F)F)Nc1cc(C)cc(C)c1	i
O=C(O)CCn1c2c(c3ccccc31)CCCC2	1.2
COc1ccc(NC(=O)CSc2ccccn2)cc1OC	i
COc1ccccc1CN1C(=O)CCC1(C)C(=O)NC1CCCCCC1 (stereo unspecified)	i
CC1CCCCC1NC(=O)COC(=O)c1ccc(N(C)C)cc1 (stereo unspecified)	0.1
CCOC(=O)C1=C(C)N(c2nonc2NC(C)=O)C(N)=C(C#N)C1c1ccccc1F (stereo unspecified)	i
CCOC(=O)c1ccc(N2C(=O)CC(Sc3nc(O)c(CC)c(=O)[nH]3)C2=O)cc1 (stereo unspecified)	i
Oc1ccc(Cl)cc1CNCC1CCCO1 (stereo unspecified)	i
c1ccc(-c2nnc(CN3CCCc4ccccc43)o2)cc1	2.6
Cc1ccc(-n2c(CNc3ccc(F)cc3)nnc2SCC(=O)N2CCCC2)cc1	0.8
O=CN1CCN(C(=O)c2ccccc2Cl)CC1	i
O=C(NCc1cc(C(F)(F)F)cc(C(F)(F)F)c1)C1CC(c2cccc([N+](=O)[O-])c2)=NO1 (stereo unspecified)	i
Nc1ccc(N2CCN(Cc3ccccc3Cl)CC2)c(Cl)c1	0.0
COC(=O)COc1ccc(=O)n(-c2ccccc2)n1	0.5
CCOC(=O)C1CCCc2c1[nH]c1c(C(=O)O)cccc21 (stereo unspecified)	1.0
Cn1nnnc1SCCNCc1cccc2ccccc12	i
CCOC(=O)C1CN(S(=O)(=O)c2ccc(C)cc2)CCN1S(=O)(=O)c1ccc(C)cc1 (stereo unspecified)	i
CCN(CC(=O)NCc1cccs1)C(=O)c1cc(S(=O)(=O)N2CCOCC2)ccc1C	0.2
O=C1COc2ccccc2N1Cc1ccccc1Cl	i

# 3 consecutive records already listed, quoted:
canonical_smiles	H5N1 antiviral
CCOC(=O)C1CN(S(=O)(=O)c2ccc(C)cc2)CCN1S(=O)(=O)c1ccc(C)cc1 (stereo unspecified)	i
CCN(CC(=O)NCc1cccs1)C(=O)c1cc(S(=O)(=O)N2CCOCC2)ccc1C	0.2
O=C1COc2ccccc2N1Cc1ccccc1Cl	i

# The list continues:
mol	H5N1 antiviral
CCCOc1ccc(N2CC(C(=O)Nc3ccccn3)CC2=O)cc1 (stereo unspecified)	1.0
CCOC(=O)c1nnc(-c2ccccc2)nc1Sc1c(Cl)cccc1Cl	i
C/C(=N\n1c(C)cc(C)c(C#N)c1=O)c1cccs1	1.4
CC(C)CC(NC(=O)c1ccc(Cl)cc1Cl)C(=O)O (stereo unspecified)	i
Cc1ccc(NS(=O)(=O)c2cccc(C(=O)OCC(=O)NCc3ccco3)c2)cc1	i
C/C(=N\NS(=O)(=O)c1ccc(C)cc1)c1ccc(C)s1	1.3
CCOC(=O)C1CCCN(C(=O)c2cn(CC)c3ccc(S(=O)(=O)N(C)C)cc3c2=O)C1 (stereo unspecified)	0.7
CC1(C)CC(=O)C2=C(C1)N(c1ccc(F)cc1)C(N)=C(C#N)C2c1cccs1 (stereo unspecified)	i

# Quoted at random: 4 records from the list
mol	H5N1 antiviral
O=C(O)c1cccc(COc2ccc(CO)cc2Cl)c1	i
COc1cc(-c2cc(-c3ccccc3)nc(SCC(=O)Nc3nccs3)c2C#N)cc(OC)c1OC	0.5
Oc1ccc(Cl)cc1CNCC1CCCO1 (stereo unspecified)	i
OC(COc1ccccc1)CSc1ncn[nH]1 (stereo unspecified)	i

# Further compounds follow:
mol	H5N1 antiviral
Clc1ccc(-c2nnc(SCc3nc(-c4ccccc4)no3)o2)cc1	0.4
CCn1cc(C(=O)NCc2ccccc2)c(=O)c2cc(F)c(N3CCN(C(=O)c4ccco4)CC3)cc21	i
CCSc1nnc(NC(=O)c2nn(C(C)C)c(=O)c3ccccc23)s1	3.7
N#Cc1cc2c(nc1SCc1cccnc1)CCC2	1.4
Cc1ccc(-c2nn(-c3ccccc3)cc2C2SCC(=O)N2Cc2ccccc2)o1 (stereo unspecified)	6.5
Cc1cnc(NC(=O)CSc2nnc(-c3ccc(Cl)cc3Cl)n2N)s1	0.3
COc1ccccc1OCc1nc2ccccc2s1	0.1
NC(=O)c1cnn(Cc2ccc(Cl)cc2)c1N	0.2
NC(=O)C1CC=CCC1C(=O)OCC(Cl)=C(Cl)Cl (stereo unspecified)	i
CCC(=O)N(Cc1cccs1)C1CCOC(C)(C)C1 (stereo unspecified)	i
CCOc1ccc(C(C)(N)C(=O)O)cc1 (stereo unspecified)	i
O=C1C2ON(c3ccccc3)C(c3ccccn3)C2C(=O)N1c1ccc(Br)cc1 (stereo unspecified)	i
Cn1c(SCC(=O)c2ccccc2)nc2cccnc21	0.2
Cc1cc(C)c(NC(=O)CSc2nnc(Cc3cccn3C)n2-c2ccc(F)cc2)c(C)c1	2.1
COC(=O)c1ccc(CN2C(=O)NC3(CCCCC3C)C2=O)o1 (stereo unspecified)	i
Cc1cc(C)n(-c2nc(Nc3ccccc3)nc(-n3nc(C)cc3C)n2)n1	0.5
CNC(=O)c1cc2ccccc2o1	i
CSc1oc(-c2ccc(F)cc2)nc1S(=O)(=O)c1ccc(F)cc1	i
COc1ccc(-n2c(SCC(=O)Nc3ccc4c(c3)OCO4)nnc2C(C)N2CCCCC2)cc1 (stereo unspecified)	1.7
O=C(CN(Cc1cccs1)C(=O)CN1C(=O)COc2ccccc21)NCc1ccco1	0.1
O=C(/C=C/c1cc2c(cc1Br)OCO2)NCc1ccc(F)cc1	i
Cc1ccc(-n2c(SCC(=O)N3CCOCC3)nnc2-c2cccnc2)cc1C	1.2
CCCCn1c(SCC(=O)c2ccc3c(c2)OCCO3)nnc1-c1ccoc1C	1.9
O=C(Nc1ccc(F)cc1)c1cccnc1N1CCCCC1	1.9
Cc1ccccc1Cn1cnc2c([N+](=O)[O-])c(C)c(C)cc21	5.4
c1ccc(OCc2nn3c(-c4ccco4)nnc3s2)cc1	1.1
O=C(Nc1cc(C(F)(F)F)ccc1N1CCOCC1)c1n[nH]c(=O)c2ccccc12	i
CCCCNCCOCCSc1ccc(Cl)cc1	i
O=C(COc1ccc([N+](=O)[O-])cc1)NCc1ccccc1	i
O=C(NCCC1=CCCCC1)c1cc2c(s1)CS(=O)(=O)C2	1.1
CCCCNC(=O)Cn1c(-c2ccc(OC)cc2)noc1=O	0.2
COc1ccc(C(O)c2nccn2Cc2ccccc2)cc1OC (stereo unspecified)	0.1
CCn1c(C)nc2cc(S(=O)(=O)C(F)(F)C(F)C(F)(F)F)ccc21 (stereo unspecified)	i
Cc1ccsc1/C=N/NC(=O)c1sccc1C	0.4
COc1ccc(-c2cc3nc[nH]c(=O)c3s2)cc1	i
CC1CCN(C(=O)c2cc3ccccc3o2)CC1	0.1
Cn1c(N/N=C/c2c[nH]c3ccccc23)nc2ccccc21	i
CCCCN(Cc1ccccc1)C(=O)C1CCCN(S(=O)(=O)c2cnc[nH]2)C1 (stereo unspecified)	0.5
COCCCNc1oc(COc2ccc(Cl)cc2Cl)nc1C#N	i
CCOc1ccc(N2C(=O)CN=C2Nc2ccccc2Cl)cc1	i
CN(C)/C=C1\C(=O)N(c2ccc(Oc3ccccc3)cc2)CS1=O (stereo unspecified)	0.5
CCN(CC)S(=O)(=O)c1cccc(C(=O)NC(C(=O)Nc2nnc(C)s2)C(C)C)c1 (stereo unspecified)	i
Cc1cc(N2CCOCC2)nc(SCc2ccc(Cl)cc2Cl)n1	i
O=S(=O)(NCC1CCCO1)c1cc(Br)c(Br)s1 (stereo unspecified)	2.3
Cc1nc(Nc2ccc(F)cc2)[nH]c(=O)c1CCC(C)C	i
COc1cc(S(=O)(=O)NC2CCCCC2)ccc1F	1.5
Cc1cc(OCC(=O)c2ccc(Br)cc2)ccc1N1C(=O)CCC1=O	0.8
Cc1ccc(NCc2nnc(SCC(=O)Nc3ncc(C)s3)n2CC2CCCO2)c(C)c1 (stereo unspecified)	0.8
COc1ccccc1NS(=O)(=O)c1ccc(NC(=O)c2nc3ncccn3n2)cc1	0.4

# Screening data from PubChem.

# Some of the compounds tested (hit frequency here may not be typical).
